Vaccinia Venus – qHTS for Stage-Specific Inhibitors of Vaccinia Orthopoxvirus: Venus Reporter Primary qHTS | Vaccinia virus Venus reporter expression, fluorescence | Potency, µM (doses to about 36.5 µM), for the others: top-dose activity change, negative = inhibition, most hits filed as inhibitors | 330,000 tested, 0.46% active; active means well fitted inhibition curve with a large enough effect; inconclusive means small, poorly fitted or top-dose-only effect; inactive means no such curve, though single readings can be large or run the other way; tested in A549 cells; note: nearly all actives have a fitted effect of over 30% in size; inactives centre near -10
VACV mCherry inh – qHTS for Stage-Specific Inhibitors of Vaccinia Orthopoxvirus: mCherry Reporter Primary qHTS | 310,000 tested, 0.63% active | Potency, µM (series often up to 36.5 µM), for inactives: at the top dose activity change, negative = inhibition, hits mostly inhibitors | Vaccinia virus mCherry reporter infection, fluorescence; about a quarter of the inactives have no number; active = well fitted inhibition curve with a large enough effect; inconclusive = small, poorly fitted or top-dose-only effect; inactive = no such curve, though single readings can be large or run the other way; tested in A549 cells; note: nearly all actives have a fitted effect of over 35% in size; inactives centre near -10
* marks the source's active call; other numbers are inactive results; i = inactive; ? = inconclusive; · = no result given; [ ] = another dose, or the depositor's remark. % is set by controls: 0 for no effect and ±100 for the full control effect; potency is the fitted concentration of half-maximal effect. An unsorted share of the library (roughly 0.88% active in at least one column).

SMILES	Vaccinia Venus	VACV mCherry inh
C=C(C)Cn1c2ccc(NC(=S)NCc3ccccc3F)cc2c(=O)n1C	-12%	i
COc1ccccc1NC(CC(=O)c1ccccc1)C(=O)OCC(=O)c1ccc(C)cc1 (configuration not stated)	-4%	-13%
CCOC(=O)N1C2=NC(C(=O)OC)=C(C(=O)OC)[C@@H]3N(C)c4ccc(OC)cc4[C@]23C[C@H]1C(=O)OC	-27%	i
COc1cccc2cc(C(C)N(CCCN3CCOCC3)C(=S)Nc3cc(C)cc(C)c3)oc12 (configuration not stated)	-21%	-20%
COCc1ccc(-c2c(-c3ccccc3OC)sc3cc4c(cc23)OCO4)cc1	-6%	-15%
Cc1ccc([C@H]2N[C@]3(CCCN(Cc4ccco4)C3=O)[C@H]3C(=O)N(C)C(=O)[C@@H]23)cc1	-18%	i
O=C(Cc1ccccc1)NNC1CC(=O)N(c2ccc(Oc3ccccc3)cc2)C1=O (configuration not stated)	5%	-3%
CC1C(=O)C(C)C(c2ccc3c(c2)OCO3)NC1c1ccc2c(c1)OCO2 (configuration not stated)	-11%	-12%
Cc1[nH]c2ccc(-c3n[nH]c(=S)n3-c3ccc(Br)cc3)cc2c1C	-19%	i
CCOC(=O)C1CCCN(c2nc3ccccc3nc2C(C#N)C(=O)OCC)C1 (configuration not stated)	-21%	·
Cc1cccc(N(CC(=O)NCCSc2ccc(Cl)cc2)S(=O)(=O)c2ccccc2)c1C	?	?
CC1CCN(C(c2ccccc2)c2nnnn2C(C)(C)C)CC1 (configuration not stated)	-8%	·
O=C(CC1C(=O)NCCN1Cc1ccc(Cl)c(F)c1)NC1CCC1 (configuration not stated)	-18%	-18%
COc1cccc(CNC(=O)COC(=O)c2c(C)nn(-c3ccccc3)c2Cl)c1	-9%	i
Cc1ccc(N/C(=N/S(=O)(=O)c2cccs2)c2ccccc2)c(C)c1	?	-16%
O=C(CSc1oc(-c2ccco2)nc1S(=O)(=O)c1ccc(Cl)cc1)c1ccccc1	-11%	i
CCC(CO)Oc1cc(NCc2ccccn2)c2ncn(C(C)C)c2c1 (configuration not stated)	-14%	-11%
O=C(O)c1cccc(Cl)n1	-6%	-15%
Cc1ccc(C)c(N2N=C(C(=O)Nc3ccccc3N3CCOCC3)CCC2=O)c1	-13%	i
COc1cccc(-c2noc(-c3cc4ccccc4oc3=O)n2)c1OC	-6%	-5%
CCOP(=O)(O)c1ccccc1OCCOCCOc1ccccc1P(=O)(O)OCC	-1%	i
CCOC(=O)c1c(NC(=O)CC2Nc3cc(C)c(C)cc3NC2=O)sc(C)c1C (configuration not stated)	6%	-2%
CC(C)OCCCNC(=O)c1ccc(-n2c(-c3ccccc3)cc3c2CCCC3)cc1	-10%	-10%
Cc1cccc(C)c1NC(=O)C1(N2CCN(C(=O)c3ccco3)CC2)CCCCC1	-11%	-13%
COc1ccc2sc(-c3ccccc3OC)c(-c3ccc(OCCN4CCCC4)cc3)c2c1	?	-20%
CCc1nn(-c2cc(Oc3cccc4ccccc34)nc(-c3ccccc3)n2)c(N)c1C#N	-7%	-17%[1.46 µM]
Cc1ccc(N2CCN(S(=O)(=O)c3ccc(C)cc3)CC2)cc1	-12%	-17%
CCc1ccccc1Nc1cc(C(=O)NCCCN(C)C2CCCCC2)c2ccccc2n1	-3%	-1%
CC(C)C[C@H](NC(=O)c1nc[nH]c1C(=O)NC(c1ccccc1)c1ccccc1)C(=O)OCc1ccccc1	?	?
O=C(CCC1COc2ccccc2O1)Nc1ccccn1 (configuration not stated)	-22%	·
COCC(=O)N/N=C\c1ccc(OC/C=C/c2ccccc2)c(OC)c1	-18%	-17%
CC12CCC(=O)N1C(C(=O)N1CCN(S(=O)(=O)c3ccccc3F)CC1)CS2 (configuration not stated)	0%	2%
Cc1ccc(C(=O)CSc2ncnc3ccccc23)o1	?	?
O=C(COc1ccccc1)Nc1ccc(-c2ccc(N3CCOCC3)nn2)cc1	-6%	-20%
CC1CCN(C(=O)c2cnn(-c3cccc(Cl)c3)c2C2CCN(C(=O)OC(C)(C)C)CC2)CC1	-10%	-16%
COc1ccc(CCN2C(=O)c3cccnc3C2=O)cc1OC	-2%	-8%
Cn1c(=O)c2c(ncn2CCCC(=N)N2CCOCC2)n(C)c1=O	-5%	-1%
CCOC(=O)c1ccc(-n2c(CCC(=O)O)ccc2-c2cccs2)cc1	-4%	-6%
O=C(CSc1ccccn1)Nc1ccc2c(c1)oc1ccccc12	-9%	i
COc1ccc(NC(=O)CN(C)C(=O)c2ccccc2Sc2ncnc3sc(C)c(C)c23)cc1	-15%	-28%
CCN1CCN(CCCN(Cc2ccco2)C(=S)Nc2ccc(Cl)cc2)CC1	-8%	-16%
OCCNc1nc(-c2ccccc2)nc2ccccc12	-12%	i
O=C(NCc1ccc(F)cc1)C1CCN(S(=O)(=O)c2ccc3c(c2)CCCN3C(=O)C2CCC2)CC1	-19%	-14%
O=C(CCc1ccccc1)NC1(Cc2ccccc2)CCN(CCc2cccs2)C1=O (configuration not stated)	-25%	-2%
CCn1c(CCCNC(=O)c2ccco2)nc2ccccc21	-4%	1%
NC(=S)Nc1ccc(S(=O)(=O)c2ccc(NC(N)=S)cc2)cc1	1%	-13%
C/C(Cl)=C\Cn1c(N2CCCC2)nc2c1c(=O)n(C)c(=O)n2C	-13%	-15%
O=C(CCC(=O)c1cccs1)NCCc1ccc(F)cc1	-3%	-14%
COc1ccc(N(CC(=O)NC2CC2)S(=O)(=O)c2ccccc2)cc1	-2%	-10%
COCCn1c(-c2ccc(NC(C)=O)cc2)nc2c1c(=O)[nH]c(=O)n2CC(C)C	2%	i
C/C(=N\N1C(=O)c2ccccc2C1=O)c1cccc([N+](=O)[O-])c1	-8%	i
CC(=O)c1ccc(N2C(=O)N(CC(=O)c3ccc(F)cc3)c3ccccc3S2(=O)=O)cc1	-10%	-4%
CCN(CC)Cc1nc2c(c(=O)[nH]1)C1(CCCCC1)Cc1ccccc1-2	-7%	-8%
Cc1ccc(CN2CCN(CC(C)C)C(CCO)C2)s1 (configuration not stated)	1%	-22%
COc1ccc(S(=O)(=O)NCc2cccn2Cc2cccc(C)c2)cc1OC	-22%	-11%
CC(C)Cn1c(SCC(=O)Nc2ccc3[nH]c(=O)[nH]c3c2)nc2ccccc2c1=O	-6%	-9%
O=C(OCC(=O)c1c[nH]c2ccccc12)c1cc2ccccc2cc1O	-14%	-21%
Cn1c2c(c(=O)n(C)c1=O)CN(CCc1ccccc1)CN2	-9%	-14%
COC(=O)c1c(NC(C)=O)sc2c1CCCC2	-26%	·
O=C(NNc1ccc(F)cc1F)C1CCC1	-1%	?

Further records follow:
SMILES	Vaccinia Venus	VACV mCherry inh
COC(=O)[C@]12CCCCC=C1N(Cc1ccccc1)C(=O)[C@H](CC(=O)N1CCN(C(=O)c3ccco3)CC1)C2	-13%	-11%
O=C(c1ccc2c(c1)CCCC2)N1CCN(c2nc3c(F)cccc3s2)CC1	-16%	i
Cc1ccc(CN2C(=O)SC(Nc3ccccc3)C2=O)cc1 (configuration not stated)	-9%	-6%
COc1ccc2nc3ccccc3nc2c1	14%	1%
COc1ccc(S(=O)(=O)NCC2CCCN(Cc3cn(C)nc3C)C2)cc1 (configuration not stated)	-5%	-4%
Cc1cc(S(=O)(=O)NCC(C)C)ccc1OCC(=O)NC1CC1	-9%	-9%
COc1ccc(N2CCN(CC(=O)Nc3nnc(-c4ccccc4)s3)CC2)cc1	-6%	-11%
Cc1cc(C)c(NC(=O)OCCN2CCOCC2)c(C)c1	-11%	-13%
CCCCCCCC[n+]1c(C)n(-c2ccccc2)c2ccc(NC(C)=O)cc21	-7%	-6%
COCCOC(=O)c1c(NC(=O)CN(C)c2ccccc2)sc(C(N)=O)c1C	-9%	-4%
O=C(CCc1cccnc1)NCC1Cc2cccc(-c3ncccn3)c2O1 (configuration not stated)	18%	-2%
CCC(C)NCCCOc1ccc([N+](=O)[O-])cc1 (configuration not stated)	-14%	-1%
CC(C)CNC(=S)N(CCN(C)C)Cc1cc2cc3c(cc2[nH]c1=O)OCO3	-22%	-1%
C[C@@H]1CN([C@H](C)CO)C(=O)c2cc(Br)cnc2O[C@H]1CN(C)Cc1ccccc1	-2%	-23%
CCOC(=O)c1cc(S(=O)(=O)Nc2ccc(Br)c(C)c2)[nH]n1	-3%	-9%
COc1ccc(NC(=O)c2cc(OC)c(OC)c(OC)c2)cc1S(=O)(=O)N1CCCCC1	-12%	-18%
Cc1ccc(OCC(=O)NNC(=O)Cn2c(=O)cnc3ccccc32)cc1	-2%	-12%
Cc1nc(N2CCCC2)c2c(C(=O)Nc3cccc(Cl)c3)c(C)oc2n1	-24%	-14%
CCOc1ccc(C2C(=O)N(C3CCCCC3)CC(=O)N2CCc2ccccc2)cc1OC (configuration not stated)	-6%	-5%
Nn1c(COc2ccccc2F)nnc1SCC(=O)NC1CCS(=O)(=O)C1 (configuration not stated)	-3%	-10%
O=C(CC1C(=O)N(c2ccc(Cl)cc2)C(=S)N1CCc1ccncc1)Nc1ccc(F)cc1 (configuration not stated)	-29%	-8%
CCn1ccnc1CN(C)C(=O)c1cc(COc2c(F)cccc2F)on1	-14%	-3%
COc1ccc(-c2cn[nH]c2N)cc1OC	2%	-8%
CN(C)S(=O)(=O)n1cnc(C(CCO)c2ncn(S(=O)(=O)N(C)C)c2CCCO)c1 (configuration not stated)	-3%	i
Cc1cccc(NC(=O)CSC2=Nc3ccccc3C3=NC(CCC(=O)NCc4ccc(F)cc4)C(=O)N23)c1 (configuration not stated)	-16%	-6%
CSCC[C@H](NC(=O)[C@H](Cc1ccccc1)n1c(=O)[nH]c2ccccc2c1=O)C(=O)NCC1CCC(C(=O)O)CC1 (some centres not stated)	10%	-2%
Cn1c(SCC(=O)O)nnc1C1CCCCC1	-2%	-7%
COc1ccc(OC)c(NC(=O)CCn2ccnc2)c1	-8%	i
Cc1ccc(C(=O)CSc2nnc(COc3ccc(C#N)cc3)n2-c2ccccc2)cc1	-6%	-19%
CCCS(=O)(=O)N1CCCC(C(=O)N2CCN(c3ccccc3)CC2)C1 (configuration not stated)	-8%	·
Cc1cc(NS(=O)(=O)Cc2ccccc2)cc(C)c1OCC(=O)N1CCOCC1	-10%	·
CC1(C)C(=O)N(c2ccccc2)C1c1ccccc1O (configuration not stated)	?	-5%
CCc1nc(SCC(=O)Nc2ccccc2C(=O)OC)n[nH]1	-5%	·
COc1ccc(NC(=O)CSc2cc(C)nc3c(-c4ccccc4)cnn23)cc1	-2%	i
NC(=O)c1ccccc1NC(=O)C1CCCN(c2ncnc3onc(-c4ccc(F)cc4)c23)C1 (configuration not stated)	-14%	-15%
O=C(N/N=C/c1cc(Br)cs1)c1ccc2c(c1)OCCO2	-26%	?
Cc1cc(C)c(NC(=O)CS(=O)CC(=O)Nc2ccc(-n3cnnn3)c(C)c2)c(C)c1 (configuration not stated)	-13%	-6%
CC(=O)Nc1ccc(NC(=O)CSc2nnc(C3CC3)n2C)cc1	-7%	-1%
Cc1ccc(C(=O)NCC(=O)OCc2cc(=O)n3nc(C4CCCCC4)sc3n2)cc1	-5%	-1%
Cc1ccc(NS(=O)(=O)c2ccc(C(=O)NCC3CCCO3)cc2)cc1 (configuration not stated)	-3%	-16%
CCCCn1c(N)c(N(CCC(C)C)C(=O)CSc2nc3ccccc3s2)c(=O)[nH]c1=O	-10%	-11%

Some of these compounds in order of count of non-hydrogen atoms, low to high:
SMILES	Vaccinia Venus	VACV mCherry inh
COc1ccc(-c2cn[nH]c2N)cc1OC	2%	-8%
Cn1c(SCC(=O)O)nnc1C1CCCCC1	-2%	-7%
COc1ccc(OC)c(NC(=O)CCn2ccnc2)c1	-8%	i
O=C(N/N=C/c1cc(Br)cs1)c1ccc2c(c1)OCCO2	-26%	?
CCc1nc(SCC(=O)Nc2ccccc2C(=O)OC)n[nH]1	-5%	·
CC(=O)Nc1ccc(NC(=O)CSc2nnc(C3CC3)n2C)cc1	-7%	-1%
CCCS(=O)(=O)N1CCCC(C(=O)N2CCN(c3ccccc3)CC2)C1 (configuration not stated)	-8%	·
COc1ccc(NC(=O)CSc2cc(C)nc3c(-c4ccccc4)cnn23)cc1	-2%	i
CN(C)S(=O)(=O)n1cnc(C(CCO)c2ncn(S(=O)(=O)N(C)C)c2CCCO)c1 (configuration not stated)	-3%	i
Cc1ccc(C(=O)NCC(=O)OCc2cc(=O)n3nc(C4CCCCC4)sc3n2)cc1	-5%	-1%
CCCCn1c(N)c(N(CCC(C)C)C(=O)CSc2nc3ccccc3s2)c(=O)[nH]c1=O	-10%	-11%
NC(=O)c1ccccc1NC(=O)C1CCCN(c2ncnc3onc(-c4ccc(F)cc4)c23)C1 (configuration not stated)	-14%	-15%
Cc1cccc(NC(=O)CSC2=Nc3ccccc3C3=NC(CCC(=O)NCc4ccc(F)cc4)C(=O)N23)c1 (configuration not stated)	-16%	-6%
CSCC[C@H](NC(=O)[C@H](Cc1ccccc1)n1c(=O)[nH]c2ccccc2c1=O)C(=O)NCC1CCC(C(=O)O)CC1 (some centres not stated)	10%	-2%

High-throughput results as filed in PubChem.
